Bioassay records: PubChem, National Center for Advancing Translational Sciences (NCATS)
Six1-Eya2 blk = Six1/Eya2 interaction inhibition; AlphaScreen GST-Six1/His-Eya2 binding, biochemical; hits give low values; control for the full effect not named in the record; Q15475+O00167; activity change, % (test concentration not listed); actives 0.56% (n = 360,000); AID 651725; in the data active = activity change below about -65%; inconclusive = about -30% to -65%; inactive = above about -30%; note: % is set by controls: 0 for no effect and ±100 for the full control effect; compound concentration not given in the record
Target sequence (O00167 whole entry, looked up): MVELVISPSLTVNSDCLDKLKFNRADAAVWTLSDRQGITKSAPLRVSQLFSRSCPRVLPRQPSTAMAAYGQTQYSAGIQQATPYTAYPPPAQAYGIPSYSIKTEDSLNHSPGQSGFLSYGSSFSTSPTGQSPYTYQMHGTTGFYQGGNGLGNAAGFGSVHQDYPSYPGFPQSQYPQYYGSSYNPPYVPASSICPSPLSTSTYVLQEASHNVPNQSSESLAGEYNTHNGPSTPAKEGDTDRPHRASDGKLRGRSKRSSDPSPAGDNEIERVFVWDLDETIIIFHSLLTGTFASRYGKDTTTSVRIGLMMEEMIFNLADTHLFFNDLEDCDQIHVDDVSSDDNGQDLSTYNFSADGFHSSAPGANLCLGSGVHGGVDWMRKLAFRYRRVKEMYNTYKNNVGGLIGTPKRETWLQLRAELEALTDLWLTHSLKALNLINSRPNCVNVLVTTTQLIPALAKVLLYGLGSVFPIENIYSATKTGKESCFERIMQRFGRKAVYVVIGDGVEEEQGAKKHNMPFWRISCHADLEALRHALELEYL
Target sequence (Q15475 whole entry, looked up): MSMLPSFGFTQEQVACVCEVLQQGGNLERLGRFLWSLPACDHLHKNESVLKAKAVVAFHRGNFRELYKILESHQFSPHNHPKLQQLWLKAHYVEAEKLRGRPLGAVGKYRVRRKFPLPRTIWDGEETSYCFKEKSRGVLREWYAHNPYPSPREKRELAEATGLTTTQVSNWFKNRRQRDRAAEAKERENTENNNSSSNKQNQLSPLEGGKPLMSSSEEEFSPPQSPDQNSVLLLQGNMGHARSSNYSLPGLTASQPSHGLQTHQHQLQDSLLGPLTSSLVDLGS
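GST-Six1 + His-Eya2 (5X stock: 250/500 nM); Tris pH 8.0, 300 mM NaCl, 0.05% BSA, 0.02% Tween 20; GSH donor/Ni acceptor beads; 1 h 37 °C dark; AlphaScreen readout.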
PINK1 expr mod = PINK1 expression modulation | actives 0.2% (n = 410,000) | PINK1 immunofluorescence, high-content cytometry, 24 h | Potency, µM (doses to about 76.6 µM), for inactives: at the top dose activation (PINK1 increase), usual class: activators; active = well fitted activation curve with a large enough effect; inconclusive = small, poorly fitted or top-dose-only effect; inactive = flat fitted curve, though single readings scatter; cell line not stated here;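 note: potency is the fitted concentration of half-maximal effect; % of control where 0% means no effect; nearly all actives have a fitted effect of over 65% in size; a mitochondrial uncoupler was the plate control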
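Measures PINK1 amount and localization on or inside mitochondria by immunofluorescence. Stable cells get compounds at 5 concentrations for 24 hours before fixation and staining; CCCP controls included.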
D2 PAM = potentiates the human D2 dopamine receptor allosterically; DiscoveRx D2 beta-arrestin cells, luminescence, 90 min; 100% = 57 uM dopamine signal; potentiation, % (no concentration beside the values); actives 0.23% (n = 360,000); AID 624464; active = potentiation of 50% or more; inconclusive = 30% to 50%; inactive = 30% or less;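 note: compound concentration not given in the record; tested on top of an EC20 dose of dopamine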
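PathHunter beta-arrestin assay in DiscoveRx D2 cells. Compounds were added with an EC20 of dopamine (50 nM final) for 90 min at 37 deg C. Luminescence was read 1 h after detection reagent, with 57 uM dopamine as the EC100 control.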
TRPML1 blocker = blocks the human TRPML1 channel; Q9GZU1; TRPML1-inducible cells, Ca2+ dye fluorescence, FDSS; hits give low values; inhibition of EC80 agonist-evoked calcium signal; activity change, negative = inhibition, % (no concentration beside the values); actives 0.02% (n = 390,000); in the data active means activity change below about -50%; inconclusive means about -30% to -50%; inactive means above about -30%;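 note: stimulus is agonist 54-4 at its EC80 concentration; % is set by controls: 0 for no effect and ±100 for the full control effect; compound concentration not given in the record; the text of the record puts the active cut at -80%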
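Tet-induced TRPML1-DL cells loaded with Ca8 no-wash calcium dye were read kinetically on FDSS. Compound addition was followed by EC80 agonist 54-4 (4 uM final); inhibition was read over 110 s.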
TRPML1 ag = activates the human TRPML1 channel. Q9GZU1. TRPML1-expressing cells, Ca2+ dye fluorescence, FDSS; host cell line not named in the record; reference of the full effect not given here. activation, % (concentration not given with the values). actives 0.12% (n = 410,000); in the data active = activation above about 50%; inconclusive = about 30% to 50%; inactive = below about 30%; note: 0% is about no effect; the text of the record puts the active cut at 80%
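In this qHTS format, compounds were pin-transferred onto Ca8-dye-loaded TRPML1-DL cells induced with Tet overnight, and intracellular Ca2+ fluorescence was recorded kinetically for 110 s after a 10 s baseline. A subsequent 4uM final 54-4 (EC80) addition followed by a second 110 s read served as the antagonist phase.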
D2 ag = activates the human D2 dopamine receptor; P14416; DiscoveRx PathHunter D2 beta-arrestin, luminescence, 90 min; 100% = 57 uM dopamine signal; activation, % (concentration not given with the values); actives 0.084% (n = 360,000); in the data active = activation above about 40%; inconclusive = about 15% to 40%; inactive = below about 15%; note: compound concentration not given in the record; the text of the record calls up to 30% inactive
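DiscoveRx PathHunter D2 beta-arrestin cells (2,100/well) attached overnight, then compound-stimulated 90 min at 37 C in HBSS/10 mM HEPES/0.1% Tween-20 buffer; beta-galactosidase complementation read by luminescence after 1 h at ambient temperature. Dopamine 57 uM final (EC100) as control.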
* marks the source's active call; other numbers are inactive results; ? = inconclusive; · = not tested or not shown; & = joins results of further samples; [ ] = remark or other dose.

SMILES	Six1-Eya2 blk	PINK1 expr mod	D2 PAM	TRPML1 blocker	TRPML1 ag	D2 ag
O=C(Cn1nnc2ccccc21)OCC(=O)c1ccccc1	6	0.8%	-10	3	1.8	-5.5
COc1cc(/C=N/Nc2cccc(C)c2)ccc1OC(=O)c1ccco1	-5	4.8%	20	0	-0.6	5.5
O=C(O)CCC(=O)Nc1nnc(C(F)(F)F)s1	7	0.9%	8	12	1.2	-2.8
CCS(=O)(=O)c1ncc(N(Cc2ccco2)Cc2sccc2C)c(C(=O)Nc2cc(C)ccc2C)n1	·	-0.2%	·	32	1.0	·
CCC(C(=O)N1CCOCC1)n1nc(C)c2sc3ccccc3c2c1=O (stereo not given)	19	1.5%	-5	18	-0.1	-2.0
COc1ccc2nc(-c3ccccn3)ccc2c1	-9	-0.6%	-17	32	-0.6	-3.7
Cc1ccc(NC(=O)c2c(C)oc3ccc(O)c(CN4CCCCC4)c23)cc1	·	-0.7%	·	14	-0.7	·
CC(=O)Nc1ccc(S(=O)(=O)Nc2ccc(S(=O)(=O)Nc3nc(C)cc(C)n3)cc2)cc1	5	2.5%	-5	-13	1.0	-3.0
Cc1ccccc1NC(=O)C(C)Sc1nnc(-c2ccncc2)n1CC1CCCO1 (stereo not given)	13	0.2%	2	1	-0.3	-1.8
COc1nc(OCCNS(=O)(=O)c2ccc(C)cc2)nc(N(C)C)n1	18	-1.9%	3	3	0.2	1.3
O=C(CNS(=O)(=O)c1ccccc1)NCc1cccnc1	6	-1.3%	-1	-10	2.2	-2.7
COC(=O)c1cc(-c2ccc(Br)cc2)on1	10	0.7%	-11	9	-0.1	-5.6
COc1ccc(OC)c(CN2CCN(C(=O)CNC(=O)c3cc(C)cc(C)c3)CC2)c1	0	-0.3%	-5	5	0.6	-2.3
CN(C(=O)COC(=O)c1cccc(F)c1)c1ccccc1	-1	-1.2%	-7	19	-1.4	-4.8
COc1ccc(NC(=S)N(CCc2c(C)[nH]c3ccc(C)cc23)Cc2ccco2)cc1	-5	3.3%	-18	-4	-0.6	-3.4
CCc1ccc(NC(=S)N2CCN(c3cccc(C(F)(F)F)c3)CC2)cc1	6	5.9%	-8	-8	-0.4	0.4
C[C@@H]1C(=O)OC[C@H]1NC(=O)OCc1ccccc1	4	-0.9%	-16	-3	0.1	-2.1
Cc1cccc(CC(=O)NCc2nc3cccnc3n2Cc2ccc(F)cc2)c1	·	1.4%	·	-10	0.4	·
Cc1csc(NC(=S)Nc2cccc(Cl)c2)n1	-11	?	-33	24	1.0	-1.1
Cc1ccc(CNC(=O)C(=O)NCC2OCCN2S(=O)(=O)c2ccc(Cl)cc2)cc1 (stereo not given)	-3	-0.4%	-9	-10	-0.4	-0.2
COc1cccc(CNC(=O)CCS(=O)(=O)Cc2ccc(C)cc2)c1	-3	-0.6%	-3	-7	0.4	5.3
CN(C)c1cccc2c(/C=N/O)ccc(N(C)C)c12	11	4.0%	5	9	-0.4	3.4
Cc1nc2nc(SCC(=O)c3cccc([N+](=O)[O-])c3)[nH]c2cc1Br	-6	3.8%	-24	-6	2.7	3.3
CCOc1ccc(NC(=O)CN(C)C(=O)c2cc(S(=O)(=O)N3CCCCC3)ccc2Cl)cc1OCC	-12	1.0%	-3	4	1.1	-3.3
O=C1C(Br)=C(c2ccccc2)C(c2ccccc2)=C1c1ccccc1	5	-0.2%	-20	4	-0.1	-1.1

Three entries already listed, ordered by length of the SMILES, smallest number first:
SMILES	Six1-Eya2 blk	PINK1 expr mod	D2 PAM	TRPML1 blocker	TRPML1 ag	D2 ag
CN(C(=O)COC(=O)c1cccc(F)c1)c1ccccc1	-1	-1.2%	-7	19	-1.4	-4.8
Cc1cccc(CC(=O)NCc2nc3cccnc3n2Cc2ccc(F)cc2)c1	·	1.4%	·	-10	0.4	·
COc1ccc(OC)c(CN2CCN(C(=O)CNC(=O)c3cc(C)cc(C)c3)CC2)c1	0	-0.3%	-5	5	0.6	-2.3

(list continues)
SMILES	Six1-Eya2 blk	PINK1 expr mod	D2 PAM	TRPML1 blocker	TRPML1 ag	D2 ag
CCN(CC)S(=O)(=O)c1ccc(N2CCc3cc(OC)c(OC)cc3C2)nc1	-7	1.3%	-4	1	-0.4	-0.5
COC(=O)c1c(C)[nH]c(C)c1-c1cccc([N+](=O)[O-])c1	-16	2.1%	-9	2	1.0	0.0
CCN(CC(=O)Nc1ccc(NC(C)=O)cc1)C(=O)C1CC1	8	0.6%	-14	-22	-0.3	-2.7
Cc1cccc2c1nc(-c1ccccc1)n1cnnc21	-7	-0.5%	-13	5	1.4	-1.2
NC(=O)COc1ccc2cc(-c3ccccc3)c(=O)oc2c1	5	-0.3%	-5	7	0.1	-4.4
Nn1c(SCC(=O)N2CCOCC2)nnc1-c1ccccc1Cl	4	3.7%[38.3 µM]	-2	-8	0.3	3.4
COc1ccc(NC(=O)C2CCN(c3nnnn3-c3ccccc3)CC2)cc1	0	-0.2%	-27	-5	-0.8	-3.5
CC(C)N(Cc1ccccc1)C(=O)CN1C(=O)c2ccccc2C1=O	3	6.3%	-3	-2	1.1	-1.4
CCn1cc(S(=O)(=O)N2CCN(c3ccc(Cl)cc3)CC2)cn1	-1	1.2%	12	1	-0.1	0.0
Oc1ccccc1N=Nc1ccccc1O	-86*	1.8%	-13	5	1.2	-11
COc1cccc(/C=N/n2c(CO)nc3ccccc32)c1OC	-1	20%[38.3 µM]	-12	-1	-0.3	-0.3
O=C(c1ccccc1)c1cccn1CC(=O)N1CCN(c2ccccc2)CC1	-11	-2.1%	5	22	-1.0	-3.3
COc1cc(NC(=O)C2CC(=O)N(CCc3ccc(F)cc3)C2)cc(OC)c1OC (stereo not given)	2	0.3%	2	17	-0.2	-4.1
CCNC(=O)C1(C)CCCN(Cc2csc(-c3ccc(Cl)cc3)n2)C1 (stereo not given)	1	0.7%	-15	·	0.4	4.0
Cc1cc(=O)[nH]c(/N=C(\N)Nc2ccc(SC(F)F)cc2)n1	-2	1.8%	1	-10	-0.1	0.2
COc1ccc(-c2nc(C#N)c(N3CCc4ccccc4C3)o2)cc1OC	?	-24%[38.3 µM]	17	5	1.9	0.2
COc1cc(/C=C/C(=O)O)cc(S(=O)(=O)Nc2ccc(F)cc2)c1OC	1	1.6%	-13	61	1.5	-5.1
CCCC(=O)Nc1cc(C)c2c(=O)oc3ccccc3c2n1	-8	2.0%	1	-12	-1.4	-6.0
Cc1cc(C)n(CC(=O)NNC(=O)COc2ccc(Br)cc2F)n1	2	1.4%	-6	-5	1.8	0.2
COCCn1nnnc1C(c1cccs1)N1CCN(c2nc3ccccc3s2)CC1 (stereo not given)	-4	0.9%[38.3 µM]	-14	8	-0.1	1.3
COc1cccc(/C=C/C(=O)OCC(=O)NCCC2=CCCCC2)c1OC	6	0.1%	-3	2	-0.3	3.3
CCN(CC(=O)Nc1ccc(NC(C)=O)cc1)C(=O)c1cn(-c2ccccc2)nc1-c1cccs1	4	0.7%	-9	0	-0.2	-3.2
CC1=NN(C(=O)c2ccc(Cn3nc(C)c([N+](=O)[O-])c3C)cc2)C(O)(C(F)(F)F)C1 (stereo not given)	-8	3.6%[38.3 µM]	-10	-2	-0.1	-1.4
N=C1c2ccccc2CN1NC(=O)c1cccc(S(=O)(=O)N2CCOCC2)c1	-5	-0.2%	-4	-3	0.0	-7.6
CCC(=O)NC(O)C(=O)c1ccc(C)cc1 (stereo not given)	8	1.0%	-13	-9	0.0	-0.5
Further results.
SMILES	Six1-Eya2 blk	PINK1 expr mod	D2 PAM	TRPML1 blocker	TRPML1 ag	D2 ag
CCN1C=CC2=C(C#N)C(N)C(C#N)(C#N)C(c3ccccc3C(F)(F)F)C2C1 (stereo not given)	-10	?	-13	4	3.1	-8.4
CCOc1ccc(NC(=O)CC2C(=O)NCCN2C(=O)Nc2ccccc2)cc1 (stereo not given)	23	2.3%	-7	11	0.5	-0.8
CCOc1ccc(NS(=O)(=O)c2ccc3[nH]cc(C(=O)N4CCCC4)c(=O)c3c2)cc1	·	0.8%	·	-3	4.7	·
CC(=O)c1ccc(N2CCN(S(=O)(=O)c3ccc4c(c3)CC(C)N4C(=O)C3CC3)CC2)cc1 (stereo not given)	-2	2.2%	1	-9	-0.7	4.4
O=C(COC(=O)c1cc(=O)c2ccccc2o1)NCC1CCCCC1	1	0.7%	-7	26	-0.4	1.0
COc1ccc(OC)c(S(=O)(=O)N2CCC(C(=O)N3CCN(Cc4ccccc4)CC3)CC2)c1	-4	1.0%	15	0	-0.6	9.4
COCC(=O)Nc1cccc(-c2nc3cccnc3s2)c1	·	0.0%	·	-2	2.9	·
OC(CNCc1ccccc1C(F)(F)F)C(F)(F)F (stereo not given)	24	-0.1%	6	-3	0.9	3.1
OC[C@@H]1CN(Cc2ccncc2)C[C@H](n2cnc3c(NC4CC4)ncnc32)O1	14	2.2%	-2	·	0.5	-2.7
O=S(=O)(CC(CN1CCCC1)N1CCCC1)c1ccc2ccccc2c1 (stereo not given)	-2	-9.1%[38.3 µM]	-7	11	-0.6	-1.7
NNC(=O)CNC(c1ccccc1)c1cc(Br)ccc1NC(=O)CCN1CCOCC1 (stereo not given)	-16	4.6%	-50	5	0.2	-2.2
O=C(CCC1CCCCC1)Nc1c2c(nn1-c1ccc(F)cc1)CS(=O)C2 (stereo not given)	1	-0.2%	-11	1	-0.2	-2.7
COc1ccc(S(=O)(=O)NNC(=O)Nc2ccc(C)cc2)c(OC)c1	3	-0.5%	-10	23	0.5	-1.3
CCc1nn(CC(=O)N2CCCCC2)c(=O)c2cc3sccc3n12	·	2.1%	·	-9	1.0	·
Nc1ccccc1-c1nnc(SCc2ccccc2Cl)[nH]c1=O	-3	0.4%[38.3 µM]	5	14	0.5	-0.5
CC(=O)Nc1cccc(-n2nnc(SCC(N)=O)n2)c1	1	1.0%	-15	24	-0.3	-3.5
COC(=O)CSc1nc(N2CCOCC2)c2c(c1C#N)CCCC2	-1	2.8%	3	-15	3.7	-2.3
O=C(COc1ccccc1Cl)NC(=O)NC1CCCC1	4	2.4%[38.3 µM]	-13	20	1.7	0.2
COc1ccccc1N1CCN(C(=O)CNC(=O)c2cn(-c3ccccc3OC)c(=O)c3ccccc23)CC1	9	0.4%	-11	-8	-0.5	-3.8
Cc1nonc1OCCCNc1ccc([N+](=O)[O-])cc1Cl	-10	-0.6%	1	9	1.9	2.4
CCCN(CCC)c1nc(C#N)nc(N(CCC)CCC)n1	8	-1.0%&8.4%	6	-7	-0.1&1.0	4.3
CC(C)(C)c1ncc(S(=O)(=O)c2ccc(C(F)(F)F)cn2)c(N)n1	-12	8.4%	-1	-1	-0.7	-2.2
CC(C)(C)OC(=O)N1CCN(C(=O)c2[nH]cnc2C(=O)Nc2ccccc2F)CC1	-2	0.9%	·	·	·	-1.3
CCOC(=O)c1c(-c2cccs2)csc1NC(=O)CN(CC)CC	11	·	-25	25	4.9	-0.7

One compound at a time, from the list above. Order of screens: Six1-Eya2 blk | PINK1 expr mod | D2 PAM | TRPML1 blocker | TRPML1 ag | D2 ag
Entry for `CC(C)(C)c1ncc(S(=O)(=O)c2ccc(C(F)(F)F)cn2)c(N)n1` : -12 | 8.4% | -1 | -1 | -0.7 | -2.2
Entry for `O=C(COC(=O)c1cc(=O)c2ccccc2o1)NCC1CCCCC1` : 1 | 0.7% | -7 | 26 | -0.4 | 1.0
